High-throughput results from PubChem BioAssay.
eIF4H inh: human eIF4H binding inhibitors, primary screen, translation initiation inhibitor project, biochemical, uHTS, fluorescence polarization | eIF4H fluorescence polarization binding assay | inhibition, % at 35 µM | 290,000 compounds, 0.94% hits | AID 2012, 2009;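 active = 50% or more with normal probe brightness, or confirmed in later tests; inconclusive = above 50% with abnormal brightness, or retests that disagree; inactive = below 50% or failed in later tests; about a fifth of its hits are not listed in these tables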;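 also: calls also rest on retests at 20 µM and on dose response follow-up; 0% = protein and probe with vehicle and 100% = probe without protein; strong numbers were not always called active; many hits fall short of the cut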
Rce1 inh: yeast Rce1p protease inhibitors, primary screen, biochemical, fluorescence, cell-free homogeneous; CAAX prenyl protease 2 (Saccharomyces cerevisiae (strain ATCC 204508 / S288c)), Q03530; yeast membranes, quenched prenylated peptide cleavage fluorescence; calls only; 290,000 compounds, 0.27% hits; AID 2563, 2010;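 active = fall in fluorescence gain of 50% or more versus controls, with final raw signal at or below 3038400; inconclusive = same 50% fall but final raw signal above 3038400; inactive = fall in fluorescence gain under 50%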;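 also: plate controls were neutral control wells for no effect and wells lacking membranes for full effect; tested at 10 µM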
Target sequence (Q03530 whole entry, looked up): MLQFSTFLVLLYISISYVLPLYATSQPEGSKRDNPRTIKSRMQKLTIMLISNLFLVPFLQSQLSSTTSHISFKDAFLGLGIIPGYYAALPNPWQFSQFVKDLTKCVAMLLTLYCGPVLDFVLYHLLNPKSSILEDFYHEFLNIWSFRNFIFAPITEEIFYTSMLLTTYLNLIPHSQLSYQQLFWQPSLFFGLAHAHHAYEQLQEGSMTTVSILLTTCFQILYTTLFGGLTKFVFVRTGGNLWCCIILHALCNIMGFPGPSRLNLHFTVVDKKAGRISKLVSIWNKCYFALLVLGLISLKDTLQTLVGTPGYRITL
MT1-MMP act inh: blockers of MT1-MMP proenzyme processing, primary screen, HT1080 RFP-PRO-GFP cells, GFP/RFP fluorescence; Matrix metalloproteinase-14 (Homo sapiens), P50281; GFP/RFP ratio fluorescence, overnight; percent of plate control window, DMSO zero; GFP/RFP ratio change, % at 20 µM; 360,000 compounds, 0.061% hits; AID 651647, 2012;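 active = GFP/RFP ratio change of at least 30% with cell ATP level not reduced by more than half and red fluorescence within 50% of control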; also: strong numbers were not always called active
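Assay system: HT1080 cells carrying an RFP-PRO-GFP reporter | Dosing: Single dose of 20 µM compound, 1% DMSO final | Incubation: Cells overnight before dosing, compound overnight, 37 °C, 5% CO2 | Evaluation: GFP/RFP fluorescence ratio | Control set: DMSO and RFP-L50D-GFP cell wells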
PABP FP inh: PABP poly(A) RNA binding inhibitors, primary screen, biochemical, fluorescence polarization, uHTS; Polyadenylate-binding protein 1 (Homo sapiens), P11940; inhibition, % at 35 µM; 290,000 compounds, 1% hits;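 active = 50% or more with normal probe brightness, or confirmed in later tests; inconclusive = above 50% with abnormal brightness, or retests that disagree; inactive = below 50% or failed in later tests; about a fifth of its hits are not listed in these tables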;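 also: calls also rest on retests at 20 µM and on dose response follow-up; controls were probe without protein and protein plus probe with vehicle; some compounds called inactive have numbers as strong as hits; many hits fall short of the cut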
Target sequence (P11940 whole entry, looked up): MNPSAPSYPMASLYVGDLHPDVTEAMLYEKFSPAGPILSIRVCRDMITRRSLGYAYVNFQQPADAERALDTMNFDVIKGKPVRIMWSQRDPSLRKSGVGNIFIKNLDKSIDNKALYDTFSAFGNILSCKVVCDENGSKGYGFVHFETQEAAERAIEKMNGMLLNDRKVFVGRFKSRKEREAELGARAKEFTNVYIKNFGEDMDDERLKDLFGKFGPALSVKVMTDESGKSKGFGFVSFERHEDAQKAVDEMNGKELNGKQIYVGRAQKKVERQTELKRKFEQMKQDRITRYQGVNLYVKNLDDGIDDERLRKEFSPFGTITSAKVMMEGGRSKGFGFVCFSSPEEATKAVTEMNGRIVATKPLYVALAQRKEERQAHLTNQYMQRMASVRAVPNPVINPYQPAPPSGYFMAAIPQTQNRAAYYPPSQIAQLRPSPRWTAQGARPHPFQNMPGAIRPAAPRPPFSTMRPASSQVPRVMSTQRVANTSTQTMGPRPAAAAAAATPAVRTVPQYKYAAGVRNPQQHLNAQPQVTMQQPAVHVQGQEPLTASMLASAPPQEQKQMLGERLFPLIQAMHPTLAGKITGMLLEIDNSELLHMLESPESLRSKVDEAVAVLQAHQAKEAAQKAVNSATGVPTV
Yeast UUG start: modulators of yeast start codon fidelity, primary screen, whole organism, S. cerevisiae, single point, plate reader. S. cerevisiae UUG-firefly luciferase reporter, luminescence/redox ratio. activity score, % at 18.7 µM. 350,000 compounds, 0.13% hits;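 active = replicate mean at a twofold rise or more, about +100% in these data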;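 also: firefly luciferase made from a UUG start codon reports start codon fidelity; reporter light over untreated wells divided by growth signal over untreated wells; some hits fall short of that in this replicate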
Env fusion inh: inhibitors of HIV-1 Env-driven cell-cell fusion, primary screen, HeLa-JRFL effector, CEM21 target cells, luciferase; inhibition, % at 12.3 µM; 360,000 compounds, 1.1% hits;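 active = mean replicate inhibition score of at least 50 and every replicate individually at or above 50; inconclusive = only one of the two criteria met; inactive = mean below 50 and not all replicates reaching 50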;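 also: 0% = plate neutral controls and 100% = maraviroc near 300 nM; one replicate is shown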
CSC inhib: cancer stem cell viability inhibitors, primary screen, luminescence | cancer stem cell-like cells viability | inhibition, % at 7.5 µM | 300,000 compounds, 1.1% hits;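 active = mean at 75% or more and at least half the replicates too; inconclusive = mean and replicates disagree; tested in HMLE shEcad cells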;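 also: 0% = median of negative and 100% = median of positive control wells; the first replicate is given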
eIF4H inh retest: further read-out of eIF4H inh, marked with its call; inhibition, %; compound at 20 µM; confirmation average;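 mean of two retest wells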
PABP FP inh retest: also measured in PABP FP inh; calls as there; inhibition, %; compound at 20 µM; confirmation repeats;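 mean of two retest wells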
MT1-MMP act inh RFP: second read-out of MT1-MMP act inh, no call of its own (marks repeat the call); RFP signal change, %; measured here: RFP expression control read;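 0 = vehicle wells; hits needed this value within 50% of zero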
* marks the source's active call; other numbers are inactive results; i = inactive; ? = inconclusive; / = no result given.

SMILES	eIF4H inh	Rce1 inh	MT1-MMP act inh	MT1-MMP act inh RFP	PABP FP inh	Yeast UUG start	Env fusion inh	CSC inhib	others
CCOC(=O)C1=C(N)OC2=C(C(=O)CCC2)C1c1ccccc1OC (stereo unspecified)	-2	/	1	6	0	/	-12	-4
O=C(Nc1ccc(Cl)cc1)c1nc[nH]c1C(=O)NCCN(CCNC(=O)c1[nH]cnc1C(=O)Nc1ccc(Cl)cc1)CCNC(=O)c1[nH]cnc1C(=O)Nc1ccc(Cl)cc1	/	/	-10	-15	/	14	/	101*
CCS(=O)(=O)c1ccc(-c2csc(-c3ccccc3)n2)c(Cl)c1Cl	1	i	-3	-23	22	/	/	14
O=c1c2[nH]c3cccc(Cl)c3c2ncn1CC1CCCO1 (stereo unspecified)	-7	i	-2	1	11	/	-9	-8
C#CCOCCOCCOCCNc1nc(N2CCN(C(=O)C(Cc3ccc(O)cc3)n3cc(C(N)CC(C)C)nn3)CC2)nc(N2CCN(C(=O)C(Cc3cc4ccccc4[nH]3)n3cc(C(N)C(C)CC)nn3)CC2)n1 (stereo unspecified)	17	i	/	/	8	/	/	7
Cc1ccc(OCCN2C(=O)c3ccccc3C2=O)c([N+](=O)[O-])c1	-2	i	14	8	-6	/	-1	-10
Cc1cc(C(=O)CSc2nc(N)cc(N)n2)c(C)n1-c1cccc(C(F)(F)F)c1	56*	i	3	-8	-3	/	1	-6	eIF4H inh retest=74*;PABP FP inh retest=8
COc1cccc(OC)c1C(=O)NNC(=O)c1ccc(F)cc1	4	i	5	7	-8	/	-15	1
Cc1ccc(CCc2nnc(SCC(=O)Nc3ccccc3Cl)n2-c2ccccc2)o1	1	i	-10	-1	5	-3	32	-7
Cc1ccc(C)c(NC(=O)c2ccc(N(C)S(C)(=O)=O)cc2)c1	-4	i	6	0	4	-19	/	2
CC(NC(=O)c1ccc(Cl)cc1)c1nnc(SCC(=O)NC2=NCCS2)n1C (stereo unspecified)	-3	i	-2	-1	0	-11	-7	2
CC1Cc2ccccc2N1C(=O)CNc1ccccc1N1CCCCC1 (stereo unspecified)	0	i	-6	-4	-1	3	24	50
NCCCC[C@H](NC(=O)C1CCNCC1)c1nnc([C@@H](N)CO)o1	-2	i	5	5	13	-18	-41	8
N#Cc1ccc(C(=O)NC2CCCc3ccccc32)cc1 (stereo unspecified)	24	i	5	3	-5	/	5	-5
COC(=O)c1sc(NC(=O)CSc2nncs2)c(C(=O)OC)c1C	-4	/	2	2	4	-17	-42	-4
Cc1cc(=O)[nH]c(SCC(=O)c2c(N)n(C)c(=O)n(C)c2=O)n1	-3	i	-4	-1	4	-18	/	1
O=C(CNC(=O)c1ccccc1C(=O)O)c1ccccc1	-5	i	0	3	14	21	-81	-7
Cc1ccc(CN=c2c([N+](=O)[O-])nn(-c3cccc(Cl)c3)n2O)cc1	-5	i	1	3	15	-23	-8	13
Cn1nccc1C(=O)N1CCN(c2ccccc2Cl)CC1	-3	i	0	-1	4	-18	-18	0
O=C(CSc1nnc(-c2ccoc2)o1)N1CCOCC1	-4	i	-2	5	-4	/	21	-10
Cc1nnc(NC(=O)CSc2nccn2Cc2ccc(F)cc2)s1	10	i	3	6	10	-12	-3	-13
CCOC(=O)c1cnn(-c2ccccc2)c1NC(=O)c1ccccc1	-7	i	2	-1	-10	-4	-25	11
CSc1nnc2c(=O)[nH]c(=O)n(C)c2n1	/	/	-5	4	/	-24	-7	/
NS(=O)(=O)c1ccc2c(c1)C(=NO)c1cc(S(N)(=O)=O)ccc1-2	-4	i	4	2	11	-10	2	-4
COc1ccc(CCNC(=O)C2CC3Cn4c(nc5cc(Cl)c(Cl)cc54)C3N2C)cc1 (stereo unspecified)	-4	i	5	-5	12	-14	16	-8
COc1cccc(CC(NC(C)=O)C(=O)NC2CCN(C(=O)c3ccncc3)CC2)c1OC (stereo unspecified)	-9	i	2	6	-8	-3	7	/
CCCCCCc1cc2cc(S(=O)(=O)c3ccc(F)cc3)c(=O)oc2cc1O	-7	i	5	-19	-9	-9	0	30
Cc1ccc(N2CCN(/N=C/c3cccnc3)CC2)cc1	0	i	-8	-2	-2	-16	5	7
C[C@]12C(=O)N(c3cccc(Cl)c3)C(=O)N1[C@@H]1c3ccccc3OC[C@@H]1[C@H]2c1ccccc1	/	/	1	-4	/	-11	56*	5
CCn1c(COc2ccc(OC)cc2)nc2ccccc21	-9	i	11	-4	2	-17	-14	/
O=C(NN=Cc1ccccc1C(=O)O)C(=O)NN=Cc1ccccc1C(=O)O	/	/	-4	2	/	-5	12	/
O=c1[nH]c2c(=O)[nH]cnc2nc1-c1ccccc1	/	i	-1	1	/	/	-2	-5
O=C(CNS(=O)(=O)c1cccc2nonc12)NCc1ccc(F)cc1	4	i	1	0	8	-11	-3	-21
O=C(Nc1nnc(SCc2cccnc2)s1)C1CC(=O)N(c2ccc(F)cc2)C1 (stereo unspecified)	17	i	-4	2	5	-15	1	-3
COc1ccc(C(=O)C2CCCN(C(=O)c3ccc(OC)o3)C2)c(C)c1 (stereo unspecified)	-3	i	-1	5	-6	-10	/	-6
O=C(NC(=S)NCCO)c1cn(-c2ccccc2)nc1-c1ccccc1	-4	i	0	1	4	-14	-12	-9
CC1CC/C(=C\c2ccc3c(c2)OCO3)C(=O)/C1=C/c1ccc2c(c1)OCO2 (stereo unspecified)	33	i	-9	4	18	-10	-70	81*
O=C(Nc1ccc([N+](=O)[O-])cn1)c1cc(-c2cccc(Br)c2)nc2ccccc12	7	i	9	3	-7	-14	/	/
CC1(C)CC(=O)C(Sc2ccccc2)=C(O)C1	-7	i	3	7	13	7	10	0
COc1ccc(/C=C/CN2CCN(Cc3cccc(OC)c3)C(CCO)C2)cc1 (stereo unspecified)	-3	i	-2	0	-10	/	-8	1
CCOc1ccc(-n2cnnn2)cc1S(=O)(=O)NCCc1ccc(OC)c(OC)c1	-1	i	3	-1	-12	6	/	-13
CN1CCC(Oc2ccc(Sc3ccccc3)cc2)CC1	4	i	-3	0	3	-21	/	?
Cc1ccc(C(=O)C2C(=O)C3CCC2C3)cc1 (stereo unspecified)	/	/	2	2	/	-77	21	/
CCN1CCN(CCCN(Cc2ccco2)C(=S)Nc2cc(Cl)ccc2C)CC1	-2	i	3	4	-10	/	-1	18
CCCNc1ncnc2onc(C)c12	-24	i	2	1	-5	/	14	-7
O=C(CN1CCSC1=O)N1CCN(S(=O)(=O)c2ccc(Cl)cc2)CC1	/	/	4	2	/	0	/	6
N#CC1(c2ccc(NC(=O)c3ccccc3)cc2)CCCC1	7	i	5	-1	-4	-8	/	18
COC(=O)C1CCN(C(=O)c2sc3nc(-c4ccc(F)cc4)cn3c2C)CC1	2	i	4	0	4	3	-35	18
Cc1ccc(C)c(OCC(=O)NC(Cc2c[nH]c3ccccc23)C(=O)O)c1 (stereo unspecified)	2	i	-2	4	-8	/	20	-13
COc1ccccc1C(=O)NNC(=O)C(=O)Nc1ccc(C)c(Cl)c1	6	i	3	6	-5	-17	-15	/
COc1cc(CCC(=O)N2CCN(c3ccc(N4CCOCC4)nn3)CC2)cc(OC)c1OC	-9	i	/	/	-3	/	/	6
CC(C)c1cc(=O)[nH]c(SCC(=O)NC2CCCC2)n1	-7	i	1	3	1	-10	-1	-1
Cc1nc2ccccc2c2oc(C(=O)NCCCN3CCC(C)CC3)cc12	-4	i	3	5	16	-15	/	0
Cc1ccc(Oc2ccc(-c3nc(N)nc(N)n3)cc2)cc1C	-2	i	0	-10	4	-20	5	16
N=C1S/C(=C\c2ccc(-c3ccccc3C(=O)O)o2)C(=O)N1c1ccc2c(c1)OCO2	87*	i	-3	3	63*	/	8	/
CC(C)Oc1ccc(CCc2n[nH]c(=S)n2-c2ccccc2)cc1	-3	i	2	-1	-6	-7	-1	-10
Cc1ccccc1C(=O)NCCCNC(=O)c1cnccn1	1	i	2	1	-1	-6	-19	/
COc1cccc(NC(=O)COC(=O)CC(NC(N)=O)c2ccc(Cl)cc2)c1 (stereo unspecified)	-2	i	-2	-3	4	/	14	-8
O=C(Nc1ncccc1Cl)c1ccccc1F	5	i	5	5	0	-12	/	-2
CN=C1S/C(=C\c2ccc(N3CCOCC3)c(F)c2)C(=O)N1C	-10	i	2	0	6	-3	-30	6
Cc1ccc(C(=O)Nc2nnc(S(=O)(=O)N3CCN(c4ccc(F)cc4)CC3)s2)cc1	-9	i	3	-9	5	-18	-1	-7
Cc1onc(-c2ccccc2)c1C(=O)Nc1nnc(N(C)Cc2ccccc2)s1	60	i	-4	3	8	-5	23	-11	eIF4H inh retest=-4;PABP FP inh retest=-3
COc1cc(C=NNc2ccc(S(=O)(=O)Nc3ccccc3C(=O)O)cc2[N+](=O)[O-])ccc1O	/	/	24	-1	/	-4	-4	33

The list is partial. The share of hits here may be higher or lower than overall.
